High-throughput results: PubChem BioAssay, Emory University Molecular Libraries Screening Center
Measles inh: inhibitors of measles virus growth in cells, primary screen, measles RdRp inhibitor project, cell-based, single point, HTS | infected Vero cells, GFP fluorescence, 64 h; hits give low values | z-score (no concentration beside the values) | 33,000 tested, 0.1% active;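 active means z-score under -3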;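 further: score is relative to mean and SD of the compound wells of a plate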
Active calls of the source: *. A portion of the library; the hit share may differ from the screen's.

| canonical_smiles | Measles inh |
| --- | --- |
| CCOC(=O)c1ccc(C2OC3(C(=O)c4ccccc4C3=O)C3C(=O)N(c4cccc(C)c4)C(=O)C23)cc1 (centres undefined) | -0.78 |
| C(#CCN1CCOCC1)COC(c1ccccc1)c1ccccc1 | -0.78 |
| CC(=O)N1CCc2cc(Br)cc(S(=O)(=O)Nc3cc(Cl)ccc3C)c21 | 0.56 |
| CCc1ccc2[nH]c(C)c(CN3CC4(C)CC3CC(C)(C)C4)c(=O)c2c1 (centres undefined) | -1.16 |
| CCCCCOc1ccc(C2C3=C(CC(C)(C)CC3=O)OC3=C2C(=O)CC(C)(C)C3)cc1 | -1.8 |
| O=C1CC(c2cccc(O)c2)c2c(ccc3ccccc23)N1 (centres undefined) | -0.39 |
| COc1cc(NC(=O)c2ccc(C)cc2)c(OC)cc1Cl | -0.43 |
| COc1ccc(CNC(=O)c2nn3c(c2Cl)NC(c2ccc(Br)cc2)CC3C(F)(F)F)cc1 (centres undefined) | -0.38 |
| CCOC(=O)c1ccc2c(c1)C1C=CCC1C(C(=O)OCC)N2 (centres undefined) | -0.53 |
| O=C(O)c1nsc(Cl)c1Cl | 0.76 |
| CC1=C(C(=O)OCC2CCCO2)C(c2ccc([N+](=O)[O-])cc2)C2=C(CCCC2=O)N1 (centres undefined) | -0.29 |
| O=C(CN1CCOCC1)N1c2ccccc2Sc2ccc(Cl)cc21 | -0.2 |
| CSc1ccc(C2C=C(c3ccc(Cl)cc3)Nc3nnnn32)cc1 (centres undefined) | 1.07 |
| CC(C)NC(=O)c1cc(Sc2cccc(Cl)c2)nc2ccccc12 | -1.73 |
| COc1ccc(N2C(=O)c3ccc(Oc4cccc([N+](=O)[O-])c4)cc3C2=O)cc1 | 0.77 |
| O=C(Cn1ccccc1=O)c1ccc(Cl)cc1 | 0.11 |
| CCCn1c(=O)c(C(=O)NC(C)c2ccccc2)c(O)c2ccccc21 (centres undefined) | 1.59 |
| CC1=NN(C(=O)c2cccc(Cl)c2)C(O)(c2cccnc2)C1 (centres undefined) | 0.25 |
| Cc1nc2nc(CC(=O)NCc3ccccc3)nn2c(C)c1Cc1cccc(Cl)c1 | 1.29 |
| COc1ccc(CNC(=O)c2sc3nc(-c4cccs4)ccc3c2N)cc1OC | -0.19 |
| COC(=O)c1ccc(COc2ccc3c4c(c(=O)oc3c2)CCCC4)cc1 | 1.71 |
| COc1ccc(C(=O)CN2CCN(S(=O)(=O)c3cc(Cl)ccc3OC)CC2)cc1OC | 0.12 |
| C=CCOC(=O)C1=C(C)NC2=C(C(=O)CCC2)C1c1ccccc1OC (centres undefined) | 2.61 |
| O=C1NC(c2ccccc2)Oc2ccccc21 (centres undefined) | -0.5 |
| CC1=NC(C)(C)Cc2cc(C)c(C)cc21 | -0.63 |
| Cc1ccc2[nH]c(=O)cc(C(=O)O)c2c1 | 0.37 |
| Clc1ccccc1-c1ccc(C=Cc2nc3ccccc3o2)o1 | -0.11 |
| Cc1onc(-c2ccccc2Cl)c1C(=O)N1CCN(Cc2ccccc2)CC1 | 2.08 |
| O=C(Nc1ccc2oc(-c3ccccc3F)nc2c1)c1ccc(-c2ccccc2[N+](=O)[O-])o1 | -0.63 |
| COc1ccc(NC(=O)Cc2c(C(=O)O)[nH]c3ccccc23)c(OC)c1 | -0.32 |
| Cc1ccc(C2(C(F)(F)F)NC(=O)N3CCN=C3S2)cc1 (centres undefined) | -0.01 |
| CN(C)c1ccc(C2C3C(=O)N(c4ccc([N+](=O)[O-])cc4)C(=O)C3ON2c2ccc(Cl)cc2)cc1 (centres undefined) | -1.35 |
| COc1ccccc1N1C(=O)c2ccc(C(=O)Nc3ccc(Sc4ccc([N+](=O)[O-])cc4)cc3)cc2C1=O | -0.96 |
| O=C1CSC(c2ccc(F)cc2)N1c1ccc(F)cc1 (centres undefined) | -0.49 |
| Cc1ccc(NC(=O)CCCn2c3ccccc3c(=O)c3ccccc32)cc1 | -0.67 |
| COc1ccc(-c2cc(C(F)(F)F)n3nc(C(=O)NCc4ccccc4)cc3n2)cc1 | 1.29 |
| O=C(Nc1ccc(NC(=O)c2ccccc2Br)cc1)c1ccc([N+](=O)[O-])cc1 | -0.96 |
| CCOC(=O)c1sc(=S)n(-c2cccc([N+](=O)[O-])c2)c1N | -0.86 |
| CC(C)OC(=O)COc1ccc2c(=O)c(Oc3ccccc3Br)c(C(F)(F)F)oc2c1 | -1.12 |
| COc1ccccc1CC(=O)N1CCCCC1 | 0.27 |
| N=c1c(C(=O)NCc2ccccc2)cc2c(=O)n3ccccc3nc2n1CCc1ccccc1 | -0.59 |
| COc1ccc(-n2nc3cc(C)c(NC(=O)c4cc(Cl)ccc4OC)cc3n2)cc1 | -0.24 |
| O=C(NCC1(c2ccccc2)CCOCC1)C1(c2ccccc2)CCOCC1 | -0.6 |
| COc1ccccc1N(CC(=O)Nc1ccccc1C)S(C)(=O)=O | -0.75 |
| Cc1cc(NCCN)nc(NS(=O)(=O)c2ccccc2Cl)n1 | -0.1 |
| CCOC(=S)SCc1cn2ccc(C)cc2n1 | -0.2 |
| COc1ccc(NC(=O)CN(C)S(=O)(=O)c2cccs2)cc1 | -0.1 |
| CN(Cc1ccccc1)C(C(=O)NC1CCCC1)c1ccc(Cl)cc1 (centres undefined) | 0.88 |
| CN(C(=O)CCc1nc(-c2ccccc2F)no1)c1cccc(C(F)(F)F)c1 | -0.66 |
| Cc1cc(S(=O)(=O)Nc2cc(C(=O)NCCc3ccccc3)ccc2N2CC3CC(C2)c2cccc(=O)n2C3)ccc1F (centres undefined) | -0.62 |

Continued.
| canonical_smiles | Measles inh |
| --- | --- |
| CCCCCn1c(=S)[nH]c2cc(C(=O)NCc3ccccc3)ccc2c1=O | -0.15 |
| O=C(O)c1ccccc1NCc1cccc2ccccc12 | 0.07 |
| CCC(NC1CCS(=O)(=O)C1)C(=O)O (centres undefined) | -1.28 |
| COc1cc(C)c(S(=O)(=O)NCCCN2CCOCC2)cc1C | 0.18 |
| Cc1cc(Cl)ccc1OCC(=O)Nc1cccc2c1C(=O)c1ccccc1C2=O | -0.42 |
| Cc1cc(C)c(S(=O)(=O)Nc2ccc(O)c3ccccc23)c(C)c1 | 1.86 |
| CC1CCc2c(oc3ccc(NS(=O)(=O)c4cccc([N+](=O)[O-])c4)cc23)C1 (centres undefined) | 2.03 |
| Cc1cccc(NC(c2ccc(Cl)cc2)c2ccc3cccnc3c2O)n1 (centres undefined) | 0.49 |
| Cc1nc2nc(SCC(C)C)nn2c(C)c1C | -0.58 |
| Cc1c(Cl)cccc1-n1ncnc1-c1ccccc1Cl | -1.46 |
| Cc1c(NC(=O)CSc2ccc(Cl)cc2)c(=O)n(-c2ccccc2)n1C | -0.42 |
| O=[N+]([O-])c1c(N2CCCC2)ncnc1N1CCCC1 | -0.68 |
| CC1=C(C(=O)OCC(C)C)C(c2ccccc2Br)C2=C(CC(c3ccccc3)CC2=O)N1 (centres undefined) | -0.89 |
| CC(=O)Nc1ccccc1-c1nc2ccc([N+](=O)[O-])cc2[nH]c1=O | 0.31 |
| CC1=C(C(=O)Nc2ccccn2)C(c2ccc(Br)cc2)C2=C(CCCC2=O)N1 (centres undefined) | 0.51 |
| CCCCOC(=O)COc1ccc2c(=O)c(Oc3cc(C)cc(C)c3)coc2c1 | -1.17 |
| O=C(Nc1cc(C(F)(F)F)ccc1C(F)(F)F)c1ccccc1I | -0.22 |
| COc1ccccc1NC(=O)CSc1nc(-c2ccc(Cl)cc2)cn1-c1ccccc1 | -0.12 |
| Cc1ccc2nc3c(cc(C(=O)NCC4CCCO4)c(=N)n3Cc3ccco3)c(=O)n2c1 (centres undefined) | -0.61 |
| O=C(O)CSc1nnc2c(n1)[nH]c1ccccc12 | -0.4 |
| Cc1nn(C)c(C)c1Nc1ccc(N2C(=O)CCCC2=O)cc1[N+](=O)[O-] | -0.82 |
| Cc1nnc(SCC(=O)Nc2cc(C(F)(F)F)cc(C(F)(F)F)c2)s1 | -0.28 |
| OCc1ccc2c(c1)OCCOCCOc1ccc(CO)cc1OCCOCCO2 | 1.41 |
| O=C(Nc1nccs1)c1ccc([N+](=O)[O-])s1 | 0.68 |
| CCn1c(SCC(=O)NCc2ccco2)nnc1-c1cccnc1 | -0.01 |
| CCOc1ccc2c(c1)sc(=NC(=O)c1c(OC)cccc1OC)n2C | 1.15 |
| CCC(C)N1C(=O)CN(C2CCC(C)CC2)C(=O)C1c1ccc(C)cc1 (centres undefined) | 0.62 |
| CCOc1ccc(C2/C(=C(\O)c3ccccc3)C(=O)C(=O)N2c2ccc(C)c(Cl)c2)cc1 (centres undefined) | 0.79 |
| O=C(COc1cccc(Cl)c1)Nc1ncc(S(=O)(=O)c2ccc([N+](=O)[O-])cc2)s1 | -0.59 |
| COC(=O)c1c[nH]n2c(=O)c(Cc3cccc(C)c3)c(C)nc12 | -0.15 |
| COC(=O)C1=C(C)NC2=C(C(=O)CCC2)C1c1ccc(OC)cc1 (centres undefined) | 0.12 |
| CSc1ccc(C2C3=C(CCCC3=O)OC3=C2C(=O)CCC3)cc1 | 0.64 |
| Cc1ccc(C2CC(=O)C3=C(C2)Nc2ccccc2NC3c2coc3ccc(C)cc3c2=O)cc1 (centres undefined) | 0.37 |
| COC(=O)c1ccc(Oc2coc3cc(O)ccc3c2=O)cc1 | 1.7 |
| O=C(NC1CCCc2ccccc21)C1CCN(S(=O)(=O)c2cccc3nsnc23)CC1 (centres undefined) | 0.71 |
| Cc1cc(C)c2c(C)cc(Nc3ccccc3)nc2c1 | -0.17 |
| COc1ccc(CCn2c(SCC(=O)N3CC(C)CC(C)C3)nc3c(sc4ccccc43)c2=O)cc1OC (centres undefined) | 0.6 |
| COC(=O)C1=C(C)NC2=C(C(=O)CC(C)(C)C2)C1c1coc2ccccc2c1=O (centres undefined) | -0.03 |
| CCOC(=O)c1sc(NC(=O)c2ccccc2F)nc1C | 0.98 |
| CCC(=O)N1CCc2cc(S(=O)(=O)Nc3ccc(N(CC)CC)cc3C)ccc21 | 1.77 |
| CCOC(=O)c1c(-c2cccs2)csc1NC(C)=O | -1.17 |
| Cc1nn(CC(=O)NC(C)c2ccccc2)c(=O)c2ccccc12 (centres undefined) | 0.47 |
| O=C(Nc1ccc(-c2nc3ncccc3o2)cc1)c1ccc(F)cc1 | -0.6 |
| COc1ccccc1-n1nnc(C(=O)Nc2ccc(F)cc2)c1N | 0.27 |
| COc1ccc(C2CC(=O)C=C(NC3CCCC3)C2)cc1 (centres undefined) | -0.78 |
| CCCCC1CCC(C(=O)Nc2c3c(nn2-c2ccc(C)cc2C)CS(=O)(=O)C3)CC1 (centres undefined) | -0.08 |
| C=CCNC(=O)c1cc2c(=O)n3ccccc3nc2n(CCc2ccccc2)c1=N | -1.17 |
| COc1ccc2oc(=Nc3cccc(C#N)c3)c(C(=O)Nc3ccccc3)cc2c1 | 0.17 |
| CC1CCCCC1NC(=O)c1ccc2c(c1)C(=O)N(c1ccccn1)C2=O (centres undefined) | 2.11 |
| CCC(=O)N1c2ccc(S(=O)(=O)CCC(=O)Nc3ccc(C)c(F)c3)cc2CC1C (centres undefined) | -0.01 |

The list continues:
| canonical_smiles | Measles inh |
| --- | --- |
| O=C1CCc2cc(S(=O)(=O)NCc3ccc(F)cc3)ccc2N1 | -0.37 |
| O=c1sc2c(s1)SCCCS2 | -1.11 |
| O=C1OCC(=O)N(Cc2ccccc2Cl)C1c1ccc(F)cc1 (centres undefined) | -1.95 |
| CC1=C(C(=O)OC2CCCCC2)C(c2ccc(C)cc2)n2nnnc2N1 (centres undefined) | -0.76 |
| CC1CCN(S(=O)(=O)c2ccc3c(c2)N(CC(=O)NC2CCCC2)C(=O)CS3)CC1 | -1.37 |
| CCCC[n+]1cc(-c2ccccc2)nc(N2CCCCC2)n1 | 1.49 |
| CCOC(=O)c1c(NC(=O)c2ccc(F)cc2)sc(C(=O)Nc2ccccc2C)c1C | 0.56 |
| CCCc1cc(=O)[nH]c(Sc2c(-c3ccccc3)c3cc(Cl)ccc3[nH]c2=O)n1 | 2.62 |
| CC1=C(C(=O)N2CCOCC2)C(c2cccc(Cl)c2)C2=C(CCCC2=O)N1 (centres undefined) | 0.7 |
| Cc1ccc(C)c(OCC(=O)Nc2ccc(C(=O)OC(C)C)cc2)c1C | 0.18 |
| O=S(=O)(c1ccc2c(c1)OCCO2)n1c(C=Cc2ccccc2Cl)nc2ccccc21 | 1.29 |
| c1cnc2nc(-c3ccsc3)c(NC3CCCCC3)n2c1 | -1.06 |
| CCC(C)NC(=O)c1ccc(N2CC3CC(C2)c2cccc(=O)n2C3)c(NS(=O)(=O)CC23CCC(CC2=O)C3(C)C)c1 (centres undefined) | -0.07 |
| CCOC(=O)c1c(NC(=O)COc2ccccc2C(C)C)sc2c1CCCC2 | 0.09 |
| O=C(NCCN1CCOCC1)c1c[nH]c2ccc(S(=O)(=O)N3CCc4ccccc43)cc2c1=O | 1.09 |
| Cc1ccc(NC(=O)c2ccccc2-c2nc3ccccc3[nH]2)cc1C | -1.56 |
| O=C(Nc1ccc([N+](=O)[O-])cc1)c1cccc(S(=O)(=O)N2CCCCC2)c1 | -1.07 |
| CCN(CC)C(=O)c1[nH]c(C)c(C(C)=O)c1C | 0.44 |
| Cc1ccc2nc(-c3ccc(NC(=O)c4cc5ccccc5o4)cc3)sc2c1 | 0.66 |
| O=C(NCCn1ccc2ccccc21)c1cc(Cl)ccc1[N+](=O)[O-] | 0.21 |
| CC(Cl)=CCNCc1ccco1 | 0.51 |
| COc1ccc(CC(=O)Nc2sc3c(c2C(=O)Nc2ccccc2C)CCCCC3)cc1 | -0.63 |
